YopH PTP inh – blocks Yersinia enterocolitica YopH tyrosine phosphatase. fluorescence Ex485/Em525. inhibition, %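 (about 10 µM by stock and volumes)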. actives 0.16% (n = 140,000). AID 898;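 active = inhibition of 50% or more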;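 also: controls were vehicle for no effect and minimum signal wells for full effect; inactives centre near -20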
Mtb H37Rv – M. tuberculosis H37Rv growth inhibitors, H37Rv strain (AID 1626); inhibition, % at 10 µM; hits with a dose series show IC50 in µM; actives 0.95% (n = 220,000); M. tuberculosis H37Rv growth inhibition; higher % means a stronger effect;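 active = confirmed in a dose series; inconclusive = inhibition above 80% but not taken into the dose series; inactive = below 80% or under 30% at every dose of the series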;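 also: bacteria incubated seven days before Alamar blue readout; 0% = bacteria only wells and 100% = bacteria with antibiotic wells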
Arbovirus anti – antivirals against arbovirus infection; arbovirus infection cell-based antiviral screen; inhibition, % at 10 µM; actives 0.37% (n = 200,000); AID 1251;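 active = inhibition from about 30%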;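 also: bluetongue infection of BSR cells; cell survival read as ATP light after 72 h; 0% = infected wells without compound and 100% = uninfected wells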
RecA intein inh – Mtb RecA intein splicing inhibition; P9WHJ3; cell-free RecA intein splicing, fluorescence; inhibition, %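 (about 9 µM by stock and volumes)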; actives 0.75% (n = 290,000); AID 2221; in the data active = inhibition above about 30%; inconclusive = no clear call, values can overlap the other calls;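 also: 0% = vehicle wells and 100% = reference inhibitor control wells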
Target sequence (P9WHJ3 whole entry, looked up): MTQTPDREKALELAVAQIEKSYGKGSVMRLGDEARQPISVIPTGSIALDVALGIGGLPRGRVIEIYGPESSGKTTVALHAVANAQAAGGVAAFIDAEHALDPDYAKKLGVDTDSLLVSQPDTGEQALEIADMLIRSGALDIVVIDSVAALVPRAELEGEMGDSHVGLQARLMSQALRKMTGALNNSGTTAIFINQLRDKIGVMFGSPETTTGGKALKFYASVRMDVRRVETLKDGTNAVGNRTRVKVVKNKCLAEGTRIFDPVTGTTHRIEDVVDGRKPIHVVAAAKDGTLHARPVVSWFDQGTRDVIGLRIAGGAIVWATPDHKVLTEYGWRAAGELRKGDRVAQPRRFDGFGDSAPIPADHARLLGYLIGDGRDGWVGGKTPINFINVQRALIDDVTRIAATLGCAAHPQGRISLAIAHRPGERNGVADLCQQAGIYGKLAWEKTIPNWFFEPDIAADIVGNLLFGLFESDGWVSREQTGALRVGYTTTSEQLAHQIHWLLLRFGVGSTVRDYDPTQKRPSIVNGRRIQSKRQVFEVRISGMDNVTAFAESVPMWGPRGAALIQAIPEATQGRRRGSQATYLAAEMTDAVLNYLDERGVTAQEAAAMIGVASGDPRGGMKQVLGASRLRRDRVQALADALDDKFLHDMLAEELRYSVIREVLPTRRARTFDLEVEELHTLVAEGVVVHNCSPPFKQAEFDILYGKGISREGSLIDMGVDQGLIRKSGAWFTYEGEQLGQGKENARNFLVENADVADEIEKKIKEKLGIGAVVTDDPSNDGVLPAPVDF
Mtb bLac sens – beta-lactam sensitization of Mtb H37Rv | M. tuberculosis H37Rv growth with meropenem, percent inhibition; hits of this screen are not shown here | inhibition, % at 25 µM | actives 0.27% (n = 330,000) | AID 434955;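 active = about 74% or more and at least 40 points above the plate without the antibiotic, then above 30% in a dose series; inconclusive = first-round hits that could not be retested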;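 also: growth measured after seven days incubation then overnight dye step; 0% = bacteria only wells and 100% = bacteria with antibiotic; twin plates without the antibiotic show which effects depend on it; some results filed as inactive read as strong as hits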
Active calls of the source: *; ? = inconclusive; . = no result given.

structure | Arbovirus anti | Mtb bLac sens | RecA intein inh | Mtb H37Rv | YopH PTP inh
CC(C)(C)c1cc(CN2CCCCC2)cc(C(C)(C)C)c1O | 16 | -3 | 2.2 | -8% | 3
CCOCCCN(C(=O)c1ccco1)C(C(=O)NC1CCCC1)c1cccc(OC)c1OC (stereo not given) | -3 | . | -1.0 | -6% | 4
COCC(C)N1CCC(Oc2cccc(C(=O)NCCc3ccccc3)c2)CC1 (stereo not given) | . | 7 | 8.6 | . | .
O=S(=O)(NCCc1csc(-c2ccc(C(F)(F)F)cc2)n1)c1ccc2c(c1)OCCO2 | -23 | -1 | 4.0 | 3% | -17
C/C(=N/NC(=O)c1cc(-c2cccc([N+](=O)[O-])c2)n[nH]1)c1ccc(Cl)cc1 | 7 | 1 | 0.5 | 3% | 24
COc1ccc(CN2CCCCC2C)c(C)c1C (stereo not given) | 5 | -7 | -0.7 | -3% | -52
O=C(COC(=O)c1cccc(NC(=O)c2ccco2)c1)c1ccc(Br)cc1 | -2 | ? | -0.6 | -3% | -24
O=C(NCc1ccco1)c1csc2c1CCCC2 | -5 | 1 | 4.5 | 2% | .
NC(N)=N/N=C/c1cc([N+](=O)[O-])ccc1O | -12 | 18 | 3.1 | -5% | 4
Cn1cnnc1SCC(=O)c1c[nH]c2ccccc12 | 14 | -12 | -1.3 | -4% | -18
Cc1ccc2nc(SCc3nc4cc(Cl)ccc4c(=O)[nH]3)[nH]c2c1 | 0 | 0 | -5.0 | 3% | .
COc1ccc(-c2nn3c(-c4ccc(F)cc4)nnc3s2)cc1 | -10 | 56 | -1.1 | 0% | -30
COc1ccccc1CN1CC(C(=O)NCc2cnn(C)c2)CCC1=O (stereo not given) | . | -8 | 0.4 | . | .
Cc1ccc(S(=O)(=O)CC(C)N2CCN(C3CCCCC3)CC2)cc1 (stereo not given) | -5 | 6 | 8.3 | -5% | 28
Cc1ccc(C2=NN(CCC(=O)NCCC(C)C)C(=O)CC2)cc1 | 6 | 8 | 0.3 | -7% | -11
COc1cc(NC(=O)c2csc(N)n2)cc(C(=O)Nc2cccc(C(F)(F)F)c2)c1 | . | 3 | -0.7 | 11% | .
COc1cccc(N/C(C)=C/C(=O)c2ccc(Br)cc2)c1 | 1 | 63 | 13 | -6% | -22
CCC(C)(C)NC(=O)C(c1cccc(OC)c1OC)N(Cc1ccc(OC)cc1)C(=O)CCC(=O)Nc1cc(C)on1 (stereo not given) | . | -1 | 9.9 | . | .
CCCCc1ccc(NC(=O)CSc2nc(=O)n(CCN(CC)CC)c3c2CCC3)cc1 | . | -3 | -0.4 | . | .
O=[N+]([O-])c1ccc(OCc2cn([C@@H](CO)c3ccccc3)nn2)c(Br)c1 | . | -11 | -2.6 | -6% | .
CC(=O)c1sc(Nc2nc3ccc(F)cc3s2)nc1C | -32 | 54 | -1.3 | 52% | 3
CN(C)C=NC(=O)c1cc(C(=O)c2ccc(C(C)(C)C)cc2)c[nH]1 | 5 | -1 | . | -1% | .
COC1c2ccccc2C(=O)N1Cc1ccc(F)cc1 (stereo not given) | . | 5 | -2.3 | . | .
COc1ccc(S(=O)(=O)N2CCOCC2)cc1NC(=O)CO/N=C/c1ccccc1OC(F)F | -2 | 3 | -3.3 | -8% | -4
CCCCCn1c(SCCc2ccccc2)nc2c1c(=O)[nH]c(=O)n2C | -22 | -6 | -1.4 | 6% | -31
CCOc1cc(C2NC(=O)NC(c3ccccc3)=C2C(C)=O)ccc1OCC(N)=O (stereo not given) | 0 | -10 | -3.3 | . | -19
CC(C)OC(=O)CSc1nnc(-c2ccc(Cl)cc2Cl)o1 | 4 | 100 | 0.3 | <0.2µM* | -43
Cc1ccc(-c2csc3nc4c5ccccc5c(NCCCN(C)C)nn4c(=O)c23)cc1 | -28 | 100 | -80 | ? | .
Cc1ccc(S(=O)(=O)N[C@H](C(=O)N2CCC(C(=O)N[C@H](C(=O)O)c3ccccc3)CC2)C(C)C)cc1 | . | 1 | -1.7 | . | .
C=C(C)C(=O)Nc1ccc2c(c1)OCCOCCOCCO2 | . | 1 | -0.7 | -2% | .

Random excerpt: four entries already listed
structure | Arbovirus anti | Mtb bLac sens | RecA intein inh | Mtb H37Rv | YopH PTP inh
COc1ccccc1CN1CC(C(=O)NCc2cnn(C)c2)CCC1=O (stereo not given) | . | -8 | 0.4 | . | .
COc1ccc(-c2nn3c(-c4ccc(F)cc4)nnc3s2)cc1 | -10 | 56 | -1.1 | 0% | -30
CCOCCCN(C(=O)c1ccco1)C(C(=O)NC1CCCC1)c1cccc(OC)c1OC (stereo not given) | -3 | . | -1.0 | -6% | 4
CCCCc1ccc(NC(=O)CSc2nc(=O)n(CCN(CC)CC)c3c2CCC3)cc1 | . | -3 | -0.4 | . | .

Other compounds:
structure | Arbovirus anti | Mtb bLac sens | RecA intein inh | Mtb H37Rv | YopH PTP inh
O=C(CSc1nc2ccccc2c(=O)n1Cc1ccc(F)cc1)NCc1cccs1 | -7 | -2 | 0.0 | 0% | -35
Cc1ccc2c(C)c(C(=O)N3CCN(c4cnccn4)CC3)oc2c1C | . | 73 | 2.3 | . | .
CC(C)=C1C2C=CC1C1C(=O)N(c3ccc4c(c3)OCO4)C(=O)C21 (stereo not given) | -11 | -10 | -1.9 | -8% | 26
CCCCNC(=O)CCC(=O)Nc1ncc(-c2ccc(C)cc2)n1C | -6 | -6 | -1.1 | 1% | -2
O=C(CSc1ccc2nnc(-c3ccc(Cl)cc3)n2n1)N1CCc2ccccc21 | 1 | 4 | 1.0 | . | -30
CCc1ccc(C(=O)COC(=O)C(Cc2ccccc2)NC(=O)c2ccc(Cl)cc2)cc1 (stereo not given) | -2 | 2 | -0.6 | 8% | -31
O=C(O)COc1ccc2c(c1)O/C(=C\c1cccs1)C2=O | . | 5 | . | -1% | .
Cc1cccc(NC(=O)Nc2ccc3c(c2)N(C)C(=O)CS3)n1 | 4 | 10 | -0.4 | 12% | -53
Cc1[nH]n(-c2ccc([N+](=O)[O-])cc2)c(=O)c1C=NCC1CCCO1 (stereo not given) | -16 | 3 | -2.3 | -4% | .
CO[C@H]1O[C@H](C)[C@@H](O)C[C@H]1NC(=O)OCc1ccccc1 | . | -1 | -0.9 | . | .
Cc1ccc(-c2noc(CCC(=O)NCc3ccco3)n2)cc1 | -2 | -11 | 2.0 | -10% | 12
Clc1cc(Cl)cc(NC2=NCCS2)c1 | . | -4 | 3.1 | -10% | .
CCOc1cc(/C=C2\C(=O)N(Cc3ccc(C)cc3)C(C)=C2C(=O)OC)ccc1O | -33 | -3 | -0.6 | 3% | -26
C#CCN1C(=O)S/C(=C\c2ccc(-c3ccc(C(=O)O)cc3C)o2)C1=O | . | 0 | -12 | . | .
O=C(CSc1nnc2scc(-c3ccccc3)n12)NCC1CCCO1 (stereo not given) | -3 | -6 | 1.2 | 5% | -9
COc1ccc(CCn2c(O)c(C=Nc3ccc(NC(C)=O)cc3)c(=O)[nH]c2=O)cc1OC | . | 2 | -71 | 0% | .
Cc1cc(CNC(=O)CCc2nnc(CCCCc3ccccc3)o2)nn1C | 1 | 0 | 0.1 | -3% | .
COc1cc([N+](=O)[O-])c(OC)cc1SCc1n[nH]c(=S)n1-c1ccc(F)cc1 | . | -8 | -0.2 | -7% | .
CCCCCCCCN1[C@@H](CC(C)=O)c2cc(C(F)(F)F)ccc2S1(=O)=O | . | -4 | 7.0 | 9% | .
CC(C)N(CCNC(=O)C1CCCN(c2ncnc3c2nc2n3CCCCC2)C1)Cc1ccccc1 (stereo not given) | . | -5 | -2.9 | . | .
CCOC(=O)C1=C(C)N(C)C(C)=C(C(=O)OCC)C1c1ccccc1 | -4 | 1 | -2.1 | 3% | -16
O=S(=O)(NCCc1ccccn1)c1ccc(F)c(F)c1 | 1 | -10 | -0.9 | . | -20
O=C(COc1ccc(-c2ccccc2)cc1)NN=C1CCCC1 | -7 | -12 | 0.7 | -22% | .
Cc1ccccc1C(=O)Nc1nc2c(C)csc2c(=O)s1 | . | 43 | -4.2 | 3% | .
OCC(Cc1ccccc1)NCc1ccccc1C(F)(F)F (stereo not given) | 3 | 0 | 2.8 | 7% | 18
CCOC(=O)c1ccc(C(=O)OCC)c(NC(=S)Nc2ccc([N+](=O)[O-])cc2OC)c1 | -8 | 1 | 0.1 | 5% | -27
CCN1CCN(c2ccc(N)cc2)CC1 | -7 | -4 | -5.9 | 5% | .
COc1ccc(Cl)cc1NC(=O)CSc1nc(Nc2ccccc2)nc(N2CCOCC2)n1 | . | -4 | -1.2 | . | .
O=C(OCc1nc2ccccc2s1)c1ccc(Br)o1 | -2 | 71 | 0.4 | 13µM* | .
CC(C)c1nc2ccc(NC(=O)C3CCCCC3)cc2[nH]1 | 5 | -3 | . | 4% | -27
Cc1ccccc1OCC(=O)N/N=C/c1ccc2c(c1)OCCO2 | -5 | -6 | 4.9 | 2% | -25
Cc1nc2ccccc2c(=O)n1-c1cccc(NS(=O)(=O)c2ccccc2)c1 | . | -7 | 2.2 | . | .
CN(c1ccccc1)S(=O)(=O)c1ccc(NC(=O)c2cccs2)cc1 | 2 | -2 | -2.1 | 0% | .
COc1nc(OC)nc(N2CCC(C(=O)NCc3cccs3)CC2)n1 | -4 | 6 | -1.0 | -8% | -104
CC(=O)N1CCN(C(=O)c2cccc(NS(=O)(=O)c3ccc(Br)cc3)c2)CC1 | . | -4 | 2.5 | . | .
CCOC(=O)/C(N=Nc1c(C)n(C)n(-c2ccccc2)c1=O)=C(\C)O | -2 | -6 | -1.2 | -1% | -7
CC(C)(C)OC(=O)N[C@@H](COCc1ccccc1)C(=O)N[C@@H](CO)[C@H](O)[C@@H]1C[C@@H]1C(=O)NC1CC1 | . | -5 | 1.8 | . | .
CCOC(=O)CC(=O)CSc1ncnc2c1oc1ccccc12 | 5 | -7 | -0.7 | . | -32
CCC(C)(C)NC(=O)C(c1ccc(OC)cc1)N(C(=O)CCC(=O)Nc1cc(C)on1)C1CC1 (stereo not given) | . | -5 | -0.9 | . | .
COc1ccc(NC(=O)c2sc3nc(C)nc(N4CCOCC4)c3c2C)c(OC)c1 | -1 | 16 | -5.1 | -3% | .
CCOC(=O)c1nnsc1NC(C)=O | 0 | 5 | 1.7 | -5% | -42
Cc1sc2ncn(CC(=O)NCCCC(=O)N3CCN(c4ccccn4)CC3)c(=O)c2c1C | 7 | -13 | 4.5 | -7% | -26
COCCN(C(=O)COC(=O)c1ccc2c(c1)OCCO2)c1c(N)n(Cc2ccccc2)c(=O)[nH]c1=O | . | -2 | -1.8 | . | .
CCc1c(C)sc(NC(=O)Cc2ccccc2C)c1C(=O)N1CCOCC1 | . | -2 | 0.1 | . | .
CCCCN(C)C(=O)C(Cc1ccccc1)NS(=O)(=O)c1ccc2c(c1)c(=O)n(C)c(=O)n2C (stereo not given) | -3 | 1 | 0.6 | 8% | -32
Nc1c2c(nc3ccccc13)CCC2 | 6 | -6 | 0.9 | 3% | -7
Cc1onc(-c2c(F)cccc2Cl)c1C(=O)NCCCN1CCOCC1 | 9 | 2 | 0.0 | 5% | 7
O=C(COC(=O)CCc1ccccc1)Nc1ncc(Cl)cc1Cl | -1 | -10 | . | -3% | -14
CN(C)CCNc1ncnc2c1sc1nc(N3CCCC3)c3c(c12)CC(C)(C)OC3 | . | 12 | -0.8 | 5% | .
CCOc1ccc(C(=O)Nc2cccc(-c3nc4ccccc4[nH]3)c2C)cc1[N+](=O)[O-] | 3 | 0 | 3.3 | 84% | -28
COc1cc2c(=O)n(Cc3ccccc3)c(=O)n(CC(=O)NCc3ccco3)c2cc1OC | 1 | . | 3.8 | -2% | -39
COc1cccc(N(C(=O)Cn2nnc(-c3ccc(Cl)cc3)n2)C(C(=O)NCC2CCCO2)c2ccc(C)cc2)c1 (stereo not given) | 9 | 7 | -0.1 | . | .
CCn1cc(C(=O)N2CCCC2)c(=O)c2cc(S(=O)(=O)N3CCOCC3)ccc21 | -1 | -19 | -5.5 | -3% | 30
OC(c1cccc(OCc2ccccc2)c1)c1nnc(-c2ccccc2)o1 (stereo not given) | -22 | 29 | 7.2 | 14% | -28
CCCCCCCCS(=O)C1CS(=O)(=O)CC1O (stereo not given) | . | -6 | -1.7 | -3% | .
CC(=O)Nc1cccc(-c2nnc3n2CC(C)S3)c1 (stereo not given) | 1 | 8 | 0.3 | -7% | 14

2 entries from above, as labelled records.
O=C(COC(=O)CCc1ccccc1)Nc1ncc(Cl)cc1Cl
  Arbovirus anti: -1
  Mtb bLac sens: -10
  RecA intein inh: .
  Mtb H37Rv: -3%
  YopH PTP inh: -14

CN(C)CCNc1ncnc2c1sc1nc(N3CCCC3)c3c(c12)CC(C)(C)OC3
  Arbovirus anti: .
  Mtb bLac sens: 12
  RecA intein inh: -0.8
  Mtb H37Rv: 5%
  YopH PTP inh: .

Whole records from above. Order of screens: Arbovirus anti, Mtb bLac sens, RecA intein inh, Mtb H37Rv, YopH PTP inh
Shown for `CC(C)(C)c1cc(CN2CCCCC2)cc(C(C)(C)C)c1O` : 16, -3, 2.2, -8%, 3
Shown for `Nc1c2c(nc3ccccc13)CCC2` : 6, -6, 0.9, 3%, -7

An excerpt; the hit share may differ from the screen's.
